Screens from PubChem BioAssay.
gsp agonist: activates gsp, the McCune-Albright syndrome mutation; gsp mutant cells, cAMP HTRF, 30 min; control for the full effect not named in the record; Potency, µM (top dose mostly 76.9 µM), for the others: at the highest dose activation (cAMP increase), hits mostly activators; actives 0.13% (n = 340,000); active = well fitted activation curve with a large enough effect; inconclusive = small, poorly fitted or top-dose-only effect, or another doubt; inactive = no such curve, though single readings can be large or run the other way; cell line not stated here;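 also: phosphodiesterase inhibitor Ro 20-1724 added with compounds to block cAMP breakdown; potency is read from the fitted curve at half-maximal effect; nearly all actives have a fitted effect of over 60% in size; about a fifth of the inactives were tested at one dose only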
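Cells stably selected in G418 were plated at 2000/well, grown 16-24 hr, then given compounds in DMSO with the PDE inhibitor […] (300 uM solution added) for 30 min at 37C; cAMP was read by HTRF.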
gsp antag: antagonizes gsp, the McCune-Albright syndrome mutation | gsp-mutant cells, cAMP HTRF, 30 min; control for the full effect not named in the record | Potency, µM (highest dose often 76.9 µM), without a hit: at the top dose activity change, negative = inhibition, actives largely listed as inhibitors | actives 0.4% (n = 340,000); active = falling curve of any shape with a large fitted effect; inconclusive = falling curve, mostly with a smaller effect; inactive = flat or rising curve; cell line not stated here;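 also: intracellular cAMP measured with PDE inhibitor Ro 20-1724 present during compound exposure; potency is read from the fitted curve at half-maximal effect; % is scaled to controls: 0 for no effect and ±100 for the full control effect; nearly all actives have a fitted effect of over 65% in size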
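HTRF cAMP measurement after 30 min RT detection following 30 min, 37C compound treatment alongside […] (added as 300 uM solution) in G418-selected cells seeded at 2000/well and grown 16–24 h.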
ClpP mod: qHTS Assay for Activators of ClpP; ATP-dependent Clp protease proteolytic subunit (Bacillus subtilis (strain 168)), P80244; purified B. subtilis ClpP, FRET peptide cleavage, 20 min; actives 1.9% (n = 340,000); AID 651965, 2013; Potency, µM (titrated, usually from 57.5 µM), for the others: at the highest dose activity change, negative = active; active = well fitted falling curve with a large enough effect; inconclusive = small, poorly fitted or top-dose-only effect; inactive = no such curve, though single readings can be large or run the other way; also: potency is read from the fitted curve at half-maximal effect; the source files actives as falling curves though it sought activators and does not explain the sign; nearly all actives have a fitted effect of over 65% in size; many hits overshoot -100%
Target sequence (P80244 whole entry, looked up): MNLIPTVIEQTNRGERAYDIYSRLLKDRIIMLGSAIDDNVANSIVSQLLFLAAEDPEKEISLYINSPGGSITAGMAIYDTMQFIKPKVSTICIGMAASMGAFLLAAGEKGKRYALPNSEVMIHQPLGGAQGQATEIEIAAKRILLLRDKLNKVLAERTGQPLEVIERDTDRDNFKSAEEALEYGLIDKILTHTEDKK
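Buffer: 100 mM Tris/HCl pH8, 100 mM KCl, 0.05% low protease BSA, 2.5% glycerol, 0.01% Tween-20. ClpP 10 microg/mL final; 20 min RT; delta FRET normalized to ADEP and DMSO controls.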
TRPML1 ag: human mucolipin-1 channel agonism. Q9GZU1. TRPML1-expressing cells, Ca2+ dye fluorescence, FDSS; host cell line not named in the record; reference of the full effect not given here. activation, % (concentration not given with the values). actives 0.12% (n = 410,000). AID 624414; in the data active = activation above about 50%; inconclusive = about 30% to 50%; inactive = below about 30%; also: 0% is about no effect; the text of the record puts the active cut at 80%
Target sequence (Q9GZU1 whole entry, looked up): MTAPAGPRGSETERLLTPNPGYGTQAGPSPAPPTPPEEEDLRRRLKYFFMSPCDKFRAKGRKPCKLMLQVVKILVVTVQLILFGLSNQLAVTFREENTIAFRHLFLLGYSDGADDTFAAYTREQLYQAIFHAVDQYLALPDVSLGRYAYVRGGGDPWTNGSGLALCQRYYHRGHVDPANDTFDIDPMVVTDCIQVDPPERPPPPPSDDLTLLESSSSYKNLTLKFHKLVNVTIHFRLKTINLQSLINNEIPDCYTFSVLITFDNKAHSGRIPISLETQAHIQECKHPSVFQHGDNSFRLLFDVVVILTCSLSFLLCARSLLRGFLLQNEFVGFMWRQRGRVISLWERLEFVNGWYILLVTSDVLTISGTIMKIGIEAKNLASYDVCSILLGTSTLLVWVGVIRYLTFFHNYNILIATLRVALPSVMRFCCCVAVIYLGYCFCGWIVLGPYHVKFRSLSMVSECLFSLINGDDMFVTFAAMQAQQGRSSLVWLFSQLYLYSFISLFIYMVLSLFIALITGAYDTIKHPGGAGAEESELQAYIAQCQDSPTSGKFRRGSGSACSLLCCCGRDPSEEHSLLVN
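In this qHTS format, compounds were pin-transferred onto Ca8-dye-loaded TRPML1-DL cells induced with Tet overnight, and intracellular Ca2+ fluorescence was recorded kinetically for 110 s after a 10 s baseline. A subsequent 4uM final 54-4 (EC80) addition followed by a second 110 s read served as the antagonist phase.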
Menin MLL FP FL: displaces fluorescein MLL peptide from human menin; 290,000 tested, under 10 active; FP activity change, % at 61.4 µM; Fluorescence polarization, fluorescein-MLL peptide displacement from menin; inconclusive = falling polarisation curve, or a change in total fluorescence; inactive = total fluorescence flat and polarisation flat or rising; no compound was filed as active; the % refers to the polarisation; negative = inhibition;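 also: % of control where 0% means no effect; inhibitors lower the polarisation; unlabelled MLL peptide was the positive control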
TRPML1 inh: human mucolipin-1 channel inhibition; TRPML1-inducible cells, Ca2+ dye fluorescence, FDSS; stronger effect = lower value; inhibition of EC80 agonist-evoked calcium signal; AID 624415; activity change, negative = inhibition, % (test concentration not listed); actives 0.02% (n = 390,000); Q9GZU1; in the data active means activity change below about -50%; inconclusive means about -30% to -50%; inactive means above about -30%;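 also: stimulus is agonist 54-4 at its EC80 concentration; % is scaled to controls: 0 for no effect and ±100 for the full control effect; compound concentration not given in the record; the text of the record puts the active cut at -80%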
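Calcium fluorescence in TRPML1-DL cells induced overnight with Tet: a 110 s read after compound pin addition, then a 110 s antagonist read after challenge with 54-4 at 4 uM final (EC80).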
Active calls of the source: *; ? = inconclusive; · = no result given; & = joins results of further samples; [ ] = dose if it differs, or a comment.

SMILES	gsp agonist	gsp antag	ClpP mod	TRPML1 ag	Menin MLL FP FL	TRPML1 inh
CC1CCCCC1NC(=O)Cn1nnc2ccccc2c1=O (stereo not drawn)	5%[15.4 µM]	8%	-1.4%	1.6	-3.8	6
CCc1nc(N)c(C#N)c(-c2cccc3ccccc23)c1C	-50%	6%	-14%	-0.1	-1.9	-20
Cc1ccc(C)c(NC(=O)NC2CCCCCCC2)c1	19%	9%	-2.5%	0.0	-1.7	-11
O=[N+]([O-])c1ccc(-c2nc3ccc([N+](=O)[O-])cc3[nH]2)cc1	?	?	1.2%	-0.2	-0.3	-1
CCC(C)(C)NC(=O)c1ccc2c(c1)S(=O)(=O)c1ccccc1C2=O	0%	17%	-0.2%	-1.2	-1.0	1
COc1ccccc1NC(=O)c1cccc(S(=O)(=O)N2CCN(Cc3ccccc3)CC2)c1	-35%[15.4 µM]	-9%	·	2.4	·	-5
COc1ccc(CCNC(=O)CCSc2nc(-c3ccco3)cc(C(F)(F)F)n2)cc1	6%	-8%	-5.0%	4.7	7.1	-12
COc1ccc(C(=O)COC(=O)C2COc3ccccc3O2)cc1F (stereo not drawn)	0%	-11%	2.1%	0.8	·	7
Cc1cc(OCC#N)nc(N)n1	22%	5%	-0.4%	0.2	4.3	30
CCOC(=O)N1CCN(C(=O)c2nc3ccccc3s2)CC1	-34%	?	0.1%	0.5	4.0	-4
Cc1cc(C)c(C)c(S(=O)(=O)N2CCNCC2)c1C	-13%	4%	·	1.8	-0.3	24
O=[N+]([O-])c1ccc(S(=O)(=O)N2CCC3(CC2)OCCN3S(=O)(=O)c2cccs2)cc1	-3%[15.4 µM]	5%	1.3%	-0.5	·	-1

Overlap with the part before: three entries, then new ones.
SMILES	gsp agonist	gsp antag	ClpP mod	TRPML1 ag	Menin MLL FP FL	TRPML1 inh
CCOC(=O)N1CCN(C(=O)c2nc3ccccc3s2)CC1	-34%	?	0.1%	0.5	4.0	-4
Cc1cc(C)c(C)c(S(=O)(=O)N2CCNCC2)c1C	-13%	4%	·	1.8	-0.3	24
O=[N+]([O-])c1ccc(S(=O)(=O)N2CCC3(CC2)OCCN3S(=O)(=O)c2cccs2)cc1	-3%[15.4 µM]	5%	1.3%	-0.5	·	-1
Cc1ccc(N2C(=O)C3C4C=CC(CNC(=S)Nc5ccc(Cl)cc5)(O4)C3C2=O)cc1 (stereo not drawn)	4%	5%	-2.9%	-1.0	8.1	-4
Cc1nc2ncc(Br)cc2[nH]1	1%	8%	-3.1%	0.3	0.0	-6
Cc1cccc(NS(=O)(=O)c2csc(C(N)=O)c2)c1C	30%	2%	-1.0%	0.1	2.2	5
O=C(CNC(=O)c1ccc(Cl)cc1Cl)OCCOc1ccccc1F	2%	-3%	-2.7%	4.6	·	34
Cc1cccc(NC(=O)Nc2ccc(C)c(C)c2)n1	0%	6%	0.0%&-0.8%	-0.6&-0.3	4.9	-7&8
CCOC(=O)C1CCN(C(=O)c2ccccc2NC(=O)c2ccc(Br)cc2)CC1	19%[15.4 µM]	-10%	·	1.7	1.9	-1
Cc1c(OCC(=O)NC(Cc2ccc(Cl)cc2)C(=O)O)ccc2c1oc(=O)c1ccccc12 (stereo not drawn)	·	-11%	4.3%	·	1.6	·
COc1cccc(/C=N\NC(=O)c2sc(N)nc2C)c1OC	-24%	8%	-3.3%	-1.6	1.3	-7
Cc1ccc(SCc2cc(=O)c3c(=O)n(-c4ccccc4)[nH]c3[nH]2)cc1	-9%[15.4 µM]	4%	·	1.7	?	19
CS(=O)(=O)N1CCN(c2ccccc2NC(=O)c2cccnc2Cl)CC1	?	9%	0.3%	-0.7	5.3	6
COc1ccc(C(=O)N2CCN(C3CCN(Cc4ccccc4)CC3)CC2)cc1OC	2%	11%	-1.8%	-0.5	-6.4	6
CC1(C)CNC(=O)C=C(c2ccccc2)C1	26%	-2%	0.3%	0.1	5.6	?
Cc1ccc2c(C(=O)CSc3ccccc3)c(C)[nH]c2c1	-2%	3%	0.8%	1.1	4.9	29
CCc1ccccc1NC(=O)CN1CCN(C(=O)CN2C(=O)NC3(CCCC3)C2=O)CC1	-8%	7%	-0.2%	-0.7	·	6
CC(C)CNC(=O)CN1c2cccc3cccc(c23)S1(=O)=O	?	-1%	·	-0.2	2.3	-24
CC(C)NS(=O)(=O)c1ccc(OCC(=O)N2CCCC2)cc1	-23%	7%	-0.7%	0.4	-2.9	-2
COc1ccc(CCNC(=O)c2cc(S(=O)(=O)N3CCOCC3)ccc2F)cc1	0%	0%	-4.5%	-0.5	·	4
CCOC(=O)Cc1csc(NC(=O)c2ccc(Br)cc2)n1	-5%	?	1.1%	1.0	-1.0	-13
CC(C)(C)c1ccc(C(=O)NCc2nnc(SCC(=O)NC3CCCCC3)o2)cc1	13%	-2%	1.4%	0.4	·	2
CC(C)c1ncc(CO)n1Cc1c(Cl)cccc1Cl	-18%	·	1.0%	-0.3	·	-2
O=C(c1ccccc1)N(C(=O)c1ccccc1)c1ccccc1	-84%[inhibitor]	·	-0.8%	1.7	·	9
COc1ccccc1N(CC(=O)NCCc1ccccc1)S(C)(=O)=O	-14%	9%	-1.4%	1.1	2.4	-17
CCOc1ccc2[nH]c(=O)c(CN(CC3COCCO3)C(=O)c3ccco3)cc2c1 (stereo not drawn)	-7%[15.4 µM]	5%	0.3%	0.5	-1.8	-12
NC1=C(c2ccccc2)C(=O)NC1=O	?	-1%	0.3%	·	-21	·
COc1ccc(S(=O)(=O)N=N/C=C2\C=CC=CN2O)cc1OC	15%	·	-2.5%	-0.3	·	7
COc1ccc(N2C(=O)/C(=C\c3ccco3)N=C2SCC(=O)NC(C)C)cc1Cl	3%[15.4 µM]	-7%	-0.4%	-0.7	21	1
Cc1cccc(C(=O)N=c2sccn2C)c1[N+](=O)[O-]	?	3%	0.1%	0.5	·	-11
C/C(CC(=O)Nc1cccc(F)c1)=N\NC(=O)c1ccncc1	-17%	4%	0.0%	-0.7	2.0	-2
CC(C)(C)OC(=O)N1CCC[C@H]1C(=O)OCC(=O)Nc1cc(S(C)(=O)=O)ccc1Cl	-2%	5%	1.8%	-0.6	·	-7
Cc1ccccc1Nc1nc(N)nc(COC(=O)CCS(=O)(=O)c2ccccc2)n1	-1%	14%	0.4%	-0.4	3.5	10
CCSc1nc2c(c(=O)[nH]c(=O)n2C)n1CC(O)COc1ccccc1 (stereo not drawn)	-7%	2%	-3.4%	0.8	2.5	5
CSc1cccc(Nc2cc(C(=O)NC3CCCCC3)c3ccccc3n2)c1	·	·	-6.1%	0.4	·	-11
O=C(c1ccco1)C(O)c1ccco1 (stereo not drawn)	?	8%	1.7%	0.4	?	-3
O=C(Cn1nc(C(=O)O)c2ccccc2c1=O)Nc1cc(S(=O)(=O)N2CCOCC2)ccc1Cl	?	9%	·	1.5	·	10
Cc1ccc(OCc2ccc(C(=O)Nc3ccc(S(N)(=O)=O)cc3)o2)cc1	18%[15.4 µM]	3%	·	0.3	-5.3	40
COc1cc(C(=O)N[C@@H](C)C(=O)NCc2ccco2)cc(OC)c1OC	-17%[15.4 µM]	6%	·	0.6	-0.7	-2
COc1cc(Cl)c(C)cc1NC(=O)c1cnn(-c2ccc(C)cc2)c1-n1cccc1	·	·	-7.1%	-0.3	·	21
CCC(C)[C@H](NC(=O)[C@@H]1Cc2ccccc2CN1C(=O)OC(C)(C)C)C(=O)NCC1CCC(C(=O)O)CC1 (stereo partly drawn)	15%[15.4 µM]	-1%	·	0.7	3.3	-3
Cc1ccc2cc(CN(C(=O)c3cccc(Cl)c3)c3ccccc3)c(=O)[nH]c2c1	·	·	-26%	1.3	·	20
Cc1ccc(Nc2nc(N)nc(CN3CCN(c4ccccc4)CC3)n2)cc1Cl	-5%	-7%	0.6%	0.3	-0.3	-6
CN(Cc1ccc(O)cc1)C1CCCCC1	-4%	4%	0.1%	0.2	1.7	2
COc1ccc(-c2nc(Cn3c(SCc4cccc(F)c4)nc4cccnc43)c(C)o2)cc1	·	·	5.0%	0.8	·	14
C[C@@H]1CN([C@@H](C)CO)C(=O)CCCn2nncc2CO[C@H]1CN(C)C(=O)NC1CCCCC1	-26%	·	2.4%	-0.1	·	-14
Cc1onc(-c2ccccc2)c1-c1ccnn1S(=O)(=O)c1ccc(Cl)cc1	17%[15.4 µM]	-20%	·	-0.2	10	-24
c1ccc(-c2noc(-c3ccno3)n2)nc1	0%	7%	-0.3%	-0.4	0.5	4
COc1ccccc1CN1C[C@@H]2C[C@@H](c3cccc(C)c3)N3CCC[C@@]23C1=O	11%[15.4 µM]	0%	·	1.5	5.3	19
O=C(Nc1ccc(Cc2ccncc2)cc1)C1CCC(N2C(=O)C3CC=CCC3C2=O)CC1 (stereo not drawn)	-10%	-11%	-6.5%	-0.2	1.3	19
COCCCNC(=O)C1CCC(Cn2c(=O)c3sccc3n(Cc3ccc(F)cc3)c2=O)CC1 (stereo not drawn)	·	·	0.5%	-0.5	·	-5
O=C(NCc1n[nH]c(=S)n1-c1ccccc1)c1ccc(S(=O)(=O)N2CCCCC2)cc1	28%	-21%	0.1%	1.5	-3.9	-2
Cc1ccc(S(N)(=O)=O)cc1NC(=O)c1c(-c2c(Cl)cccc2Cl)noc1C	·	·	-0.5%	1.6	·	2
Cc1ccc(N2C(=O)N(Cc3cc(=O)n4ccccc4n3)c3ccccc3S2(=O)=O)cc1Cl	·	·	4.8%	-0.5	·	19
Cc1ccc(/C=C/C(=O)Nc2nnc(SCc3ccc(C#N)cc3)s2)o1	16%	4%	-3.1%	0.8	11	-16
Cc1cccc(-n2cc(-c3ccccc3)c3c(NN4CCOCC4)ncnc32)c1	-36%[inhibitor]	1%	-3.6%	-0.7	3.2	-9
Cc1ccc2nc(N/N=C/c3ccccc3F)nc(-c3ccccc3)c2c1	18%[15.4 µM]	-27%	-8.1%	-0.8	-3.8	5
COc1cccc(/C=N/NC(=O)CC2C(=O)NN=C2C)c1OC (stereo not drawn)	19%	17%	?	0.1	3.7	20
COc1ccc(C(=O)NC(=S)Nc2ccc3[nH]c(=O)[nH]c3c2)cc1Br	-33%[inhibitor]	·	-0.8%	-0.1	·	5
COc1cccc(NC(C(=O)Nc2cccc(C(C)=O)c2)c2ccccc2)c1 (stereo not drawn)	-4%	-19%	-3.9%	1.2	5.2	0
CC(C(=O)NN)n1nnc(N2CCOCC2)n1 (stereo not drawn)	-11%	4%	1.7%	0.8	0.0	-9
COC(=O)C1=C[C@@H](C(=O)OC)[C@@H]2C3=C(C(=O)[C@@]2(C)NC(=O)c2ccccc2)[C@H](C)[C@@H]2C(=O)N(Cc4ccccc4)C(=O)[C@@H]2[C@@H]3C1	·	·	·	0.3	?	0
Cc1ccc(/C=c2/sc3n(c2=O)CCCN=3)o1	4%	-17%	-5.0%	-0.4	?	28
